Screening data from PubChem BioAssay.
Cruzain noTriton – cruzain (T. cruzi) inhibition without detergent. purified cruzain, Z-FR-AMC fluorescence, no detergent. Potency, µM, inactives show max response, negative = inhibition, usual class: inhibitors. actives 2.3% (n = 200,000). AID 1476; active means well fitted curve in the direction sought with a large enough effect; inconclusive means small, poorly fitted or top-dose-only effect, or another doubt; inactive means no such curve, though single readings can be large; an effect the other way counts as inactive or inconclusive;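 further: plate controls were enzyme without inhibitor for no effect and buffer without enzyme for full effect; nearly all actives have a fitted effect of over 40% in size; top concentration of the series not given in the record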
Target sequence (P25779 123-467 limits assumed): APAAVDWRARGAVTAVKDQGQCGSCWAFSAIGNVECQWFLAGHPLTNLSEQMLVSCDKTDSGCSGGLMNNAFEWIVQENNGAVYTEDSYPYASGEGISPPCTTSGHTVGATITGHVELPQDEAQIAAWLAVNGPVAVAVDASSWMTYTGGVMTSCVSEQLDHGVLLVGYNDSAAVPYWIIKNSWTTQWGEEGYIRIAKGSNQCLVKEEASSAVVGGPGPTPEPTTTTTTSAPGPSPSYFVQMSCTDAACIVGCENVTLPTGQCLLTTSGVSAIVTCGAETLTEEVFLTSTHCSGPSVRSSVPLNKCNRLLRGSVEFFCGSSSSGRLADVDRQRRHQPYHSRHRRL
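Detergent-free condition (0.00005% Triton X-100) in acetate buffer pH 5.5 with DTT. 1.5 nM enzyme and compound were pre-mixed 15 min, then 2 uM Z-FR-AMC substrate added; reaction progress from fluorescence change between first and third reads (60 s).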
Cruzain Triton – cruzain (T. cruzi) inhibition with detergent | purified cruzain, Z-FR-AMC fluorescence, 0.01% Triton | Potency, µM, without a hit: max response, negative = inhibition, most hits filed as inhibitors | actives 0.43% (n = 200,000) | AID 1478; active means well fitted curve in the direction sought with a large enough effect; inconclusive means small, poorly fitted or top-dose-only effect, or another doubt; inactive means no such curve, though single readings can be large; an effect the other way counts as inactive or inconclusive;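 further: plate controls were neutral wells for no effect and buffer without enzyme for full effect; nearly all actives have a fitted effect of over 40% in size; top concentration of the series not given in the record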
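Sodium acetate buffer (100 mM, pH 5.5) containing 5 mM DTT and 0.01% Triton X-100 hosted 1.5 nM cruzain and test compound for 15 min at room temperature. Cleavage of 2 uM Z-FR-AMC was then tracked by fluorescence.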
2A StopGo – lowers the luciferase signal of an FMDV 2A StopGo reporter; human cells with a luciferase reporter of 2A StopGo recoding; control for the full effect not named in the record; Potency, µM (doses to about 57.9 µM), inactives show at the highest dose signal change, negative = less light; actives 1.2% (n = 410,000); active = well fitted falling curve with a large enough effect; inconclusive = small, poorly fitted or top-dose-only effect; inactive = no such curve, though single readings can be large or run the other way; tested in HEK293T cells; further: on the % scale 0 is the no-effect control and ±100 the full control effect; nearly all actives have a fitted effect of over 45% in size; luciferase light after 4 h
MARV entry inh – inhibitors of Marburg virus binding or cell entry; Marburg virus pseudotyped entry inhibition, cell reporter; control for the full effect not named in the record; about a third of the inactives were read at about 46 µM; actives 1.8% (n = 300,000); AID 540276; Potency, µM (top dose mostly 37.8 µM), without a hit: top-dose activity change, negative = inhibition, usual class: inhibitors; active = well fitted inhibition curve with a large enough effect; inconclusive = small, poorly fitted or top-dose-only effect, or effect the other way; inactive = flat fitted curve, though single readings scatter; tested in HEK293 cells; about a fifth of its hits are not listed in these tables; further: on the % scale 0 is the no-effect control and ±100 the full control effect; luciferase read-out
NS1 inh – blocks influenza NS1 protein function; AID 2326; S. cerevisiae slowed by influenza A NS1, growth recovery by OD600; actives 0.4% (n = 270,000); Potency, µM (doses to about 46.1 µM), for the others: at the top dose activity, positive = more growth; further: actives are rising curves; nearly all actives have a fitted effect of over 50% in size
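OD600 was taken as the measure of yeast growth restored by compound in an NS1-expressing S. cerevisiae strain. Cells had been washed out of glucose medium and diluted 1:100 into galactose -URA medium, pH 6.0.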
RE007 growth inh – less growth of the S. pombe RE007 Vpr strain. Potency, µM (titrated, usually from 92.2 µM), without a hit: at the top dose activity change, negative = less growth. S. pombe RE007 Vpr strain, BacTiter-Glo ATP luminescence, 24 h; control for the full effect not named in the record. actives 0.21% (n = 360,000); active = well fitted falling curve with a large enough effect; inconclusive = small, poorly fitted or top-dose-only effect; inactive = no such curve, though single readings can be large or run the other way;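 further: on the % scale 0 is the no-effect control and ±100 the full control effect; nearly all actives have a fitted effect of over 50% in size; the assay follows cell death caused by Vpr and the record does not say whether a fall means rescue or toxicity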
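Fission yeast strain RE007, carrying one chromosomally integrated HIV-1 vpr copy, was seeded at OD 0.01 in PMG+AL medium with 23 nL pinned compound. After 24 h at 30 °C and 99% humidity, viability was read by BacTiter-Glo luminescence.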
Lassa entry inh – inhibitors of Lassa virus binding or cell entry; Lassa virus pseudotype entry inhibition, cell reporter; control for the full effect not named in the record; Potency, µM (titrated, usually from 37.9 µM), for the others: top-dose activity change, negative = inhibition, most hits filed as inhibitors; actives 1.2% (n = 300,000); AID 540256; active means well fitted inhibition curve with a large enough effect; inconclusive means small, poorly fitted or top-dose-only effect, or effect the other way; inactive means flat fitted curve, though single readings scatter; tested in HEK293 cells; further: on the % scale 0 is the no-effect control and ±100 the full control effect; nearly all actives have a fitted effect of over 50% in size; luciferase read-out
SARS PLP yeast – blocks SARS-CoV papain-like protease in a yeast assay. actives 0.19% (n = 330,000). S. cerevisiae expressing SARS-CoV PLpro, growth rescue; control for the full effect not named in the record. Potency, µM (series often up to 32.9 µM), without a hit: top-dose activity, positive = growth rescue; further: 0% is about no effect; nearly all actives have a fitted effect of over 55% in size; growth read by luminescence after 48 h
* marks the source's active call; other numbers are inactive results; ? = inconclusive; · = no result given; & = joins results of further samples; [ ] = another dose, or the depositor's remark. Unless noted, the call rests on the fitted dose curve; in most records, active means well fitted rising curve with a large enough effect; inconclusive means small, poorly fitted or top-dose-only effect; inactive means no such curve, though single readings can be large or run the other way. Potency means the concentration at half of the fitted maximal effect. An unsorted share of the library. About 4.5% of those tested had a hit in this group.

SMILES	Cruzain noTriton	Cruzain Triton	2A StopGo	MARV entry inh	NS1 inh	RE007 growth inh	Lassa entry inh	SARS PLP yeast
O=C(O)C1C2CCC(O2)C1C(=O)Nc1cccc(Cl)c1 (configuration not stated)	·	·	-6.7%	1.4%[46.1 µM]	-12.5%	-22.8%	1.2%[46.1 µM]	0.7%
CC(=O)c1c(C)oc2ccc(N(C(C)=O)S(=O)(=O)c3ccc(Cl)c([N+](=O)[O-])c3)cc12	-14.0%	-1.0%	35.5µM*	-23.8%[46.1 µM]	9.1%	21.0%	-28.7%	12.8%
CC(=O)c1cc(-c2ccccc2)n(CC(=O)N2CCCC2)c1C	·	·	-6.0%	6.3%[46.1 µM]	·	4.9%	4.6%[46.1 µM]	1.4%
CC(C)c1ccc(N2C(=O)CS(=O)(=O)C23C(=O)N(Cc2cccc(F)c2)c2ccccc23)cc1 (configuration not stated)	2.51µM*	-3.0%	-20.2%	·	·	·	-27.3%[46.1 µM]	·
CC(C)=CC(=O)N1CC[C@@H](N2CCN(c3ccccc3F)CC2)[C@H](O)C1	·	·	-17.0%	?	18.0%	-17.1%	14.4%	0.2%
OCc1ccccc1CNCc1ccccc1	1.2%	0.1%	·	-2.8%&-2.8%	0.7%	-6.9%	4.1%	3.5%
COc1ccc(C(C)=O)cc1COC(=O)Cc1n[nH]c(=O)c2ccccc12	-11.6%	-4.5%	-2.7%	12.2%	-3.2%	0.9%	-14.3%	-23.3%
CC1(C(O)(C#CC[N+]2(C)CCCCC2)c2ccccc2)CCCC1 (configuration not stated)	·	·	-3.0%	6.8%[46.1 µM]	-1.9%	-11.6%	13.1%	9.2%
Cc1ccc(C(c2nnnn2CCc2ccccc2)N2CCC(C)CC2)cc1 (configuration not stated)	3.5%	-0.4%	?	?	-32.4%	-24.1%	?	-46.8%
COC(=O)c1ccc(COC(=O)CCNS(=O)(=O)c2ccc(C)c(C)c2)cc1	·	·	-5.3%	8.5%[46.1 µM]	·	-14.8%	23.7%	-0.7%
Cc1[nH]nc(SCC(=O)NC(C)c2ccccc2)c1[N+](=O)[O-] (configuration not stated)	-1.2%	-3.7%	0.7%	2.5%	8.2%	-5.6%	2.5%	24.1%
CCC(C)NS(=O)(=O)c1ccc(NC(=O)c2ccc([N+](=O)[O-])cc2Cl)cc1 (configuration not stated)	4.6%	-7.8%	-2.9%	8.3%	-17.1%	-3.9%	?	27.7%
CC1CN(C2CCN(C(=O)COc3ccc(Cl)cc3)CC2)CC(C)O1 (configuration not stated)	2.5%	3.4%	-21.7%	16.4%[46.1 µM]	-0.4%	-19.2%	9.7%	13.9%
COc1cccc(CN(C)C(=O)C(Cc2ccccc2)NC(=O)c2ccccc2)c1OC (configuration not stated)	·	·	-22.9%	?	·	-4.1%	?	0.4%
O=C(OCC(=O)N1CCN(c2ccccc2)CC1)c1ccc2ncsc2c1	?	-14.3%	4.1%	-0.9%[46.1 µM]	-13.0%	9.4%	-0.2%	-9.9%
CN(CC(=O)Nc1ccccc1F)S(=O)(=O)c1ccc2c(c1)c(=O)n(C)c(=O)n2C	-13.2%	1.3%	0.0%	3.9%[46.1 µM]	·	·	7.8%[46.1 µM]	·
COc1ccc(C(=O)NNC(=O)CCC(=O)Nc2cc(C)on2)cc1	4.0%	-3.5%	-8.9%	20.3%	-7.4%	1.7%	7.1%	-13.6%
COc1cc(/C=N/NC(=O)c2cc(-c3cccc(Br)c3)nc3ccccc23)cc(OC)c1O	·	·	?	?	·	2.0%	?	·
O=C(N[C@@H](Cc1ccccc1)c1nc2ccccc2[nH]1)c1cc([N+](=O)[O-])ccc1Cl	-1.6%	-21.3%	-23.3%	?	15.5%	13.0%	-15.1%	14.2%
Cc1ccc(C)c(-n2nnnc2Sc2nc([N+](=O)[O-])nn2C)c1	-2.1%	1.4%	1.9%	?	-7.1%	6.7%	-0.3%	19.3%
CC(C)N(CC#CCC(O)(c1ccccc1)c1ccccc1)C(C)C	6.9%	-1.4%	-16.2%	?	19.1%	14.3%	?	8.3%
CCOc1ccc(CCNS(=O)(=O)c2ccc3c(c2)oc(=O)n3C)cc1OCC	·	·	4.6%	·	3.4%	-10.5%	·	9.5%
O=C(C[n+]1cc(Br)cc2ccccc21)c1ccc(Br)cc1	·	·	0.0%	?	?	-0.5%	2.6%[46.1 µM]	-3.1%
CC1(C)Cc2c(c(-c3ccco3)nc3sc4c(NCC5CCCO5)ncnc4c23)CO1 (configuration not stated)	?	-1.4%	?	-4.1%	9.4%	·	7.8%	23.2%
CCNc1nc(NCC)n2c(SC(C(=O)Nc3cc(C)ccc3OC)c3ccccc3)nnc2n1 (configuration not stated)	?	-5.4%	-19.0%	?	-11.8%	-15.1%	-24.0%	-0.9%
SMILES	Cruzain noTriton	Cruzain Triton	2A StopGo	MARV entry inh	NS1 inh	RE007 growth inh	Lassa entry inh	SARS PLP yeast
COc1ccc(C(=O)COC(=O)c2cccnc2Cl)c(OC)c1	·	·	36.3%[activator]	24.5%[46.1 µM]	·	20.4%	28.2%	-0.4%
CSCCC(NC(=O)c1ccccc1Br)C(=O)NCC(C)(C)N1CCOCC1 (configuration not stated)	·	·	-22.2%	0.5%	·	6.8%	1.9%	5.7%
Cn1ccs/c1=N\S(=O)(=O)c1ccc(C(C)(C)C)cc1	1.5%	1.6%	51.9%[activator]	?	-2.3%	7.3%	-0.1%	-9.1%
CCN(CC)C(=O)c1c(-c2ccccc2)c(-c2ccccc2)nn(CC)c1=O	21.6%	6.3%	?	?	·	·	8.8%[46.1 µM]	·
O=C(NC1CCCCC1)c1ccc(S(=O)(=O)N2CCCC2)cc1	-2.6%	-1.5%	4.1%	24.5%	-14.1%	0.6%	?	-3.7%
Cc1ccc(-c2[nH]ncc2/C=N/n2c(COc3ccccc3C)nc3ccccc3c2=O)cc1	?	-1.6%	-16.6%	11.2µM*	13.1%	22.3%	?	5.6%
Cc1c(NC(=O)C2CCCCC2)cc(C(=O)N2CCOCC2)cc1[N+](=O)[O-]	·	·	-4.5%	1.6%[46.1 µM]	·	1.7%	-17.6%[46.1 µM]	4.5%
Cn1c(=O)c2c(ncn2CC(=O)Nc2ccccc2Sc2ccccc2)n(C)c1=O	6.4%	5.1%	·	?	-59.8%	-8.3%	-9.3%	1.4%
CCN1CCCC(NC(=O)c2cc([N+](=O)[O-])ccc2OC)C1 (configuration not stated)	-4.5%	-3.8%	-16.9%	-3.3%	13.9%	-7.1%	2.5%	6.1%
COc1cccc2c1OCC/C2=N\NC(=O)COc1ccc(C)cc1	-16.3%	3.0%	31.9%[activator]	?	?	0.1%	?	-2.1%
COCCNC(=O)COc1ccc(Oc2ccccc2)cc1	3.9%	-2.2%	13.2%	17.5%	-14.0%	-1.4%	?	0.3%
Cc1ccc(C(=O)N2CCN(c3ncccn3)CC2)cc1	·	·	-14.9%	·	0.8%	-4.7%	·	0.6%
O=C(CSc1ccc2ccccc2c1)Nc1ccc(S(=O)(=O)Nc2nccs2)cc1	?	-9.3%	13.7%	40.6%	24.1%	·	1.0%	-1.0%
Cc1cccnc1-n1c(CN2C(=O)c3ccccc3C2=O)nc2ccccc2c1=O	-3.0%	-0.3%	8.3%	14.1%[46.1 µM]	-28.8%	3.3%	8.1%	3.4%
Cc1cccc2[nH]c3c(=O)n(CCN4CCNCC4)cnc3c12	-14.6%	1.8%	0.0%	-0.2%[46.1 µM]	?	10.8%	4.8%	3.5%
CC1CCCN(C(=S)Nc2ccc3nc4n(c(=O)c3c2)CCCCC4)C1 (configuration not stated)	8.3%	-2.4%	-0.5%	?	-11.6%	13.1%	13.5%	-24.0%
O=C(Nc1ccccn1)c1ccc(Cl)c(S(=O)(=O)N2CCCC2)c1	·	·	8.7%	10.9%[46.1 µM]	·	8.6%	-15.7%	2.1%
CCOC(=O)C1=C(CN2CCCCCC2)NC(=O)NC1c1cccc([N+](=O)[O-])c1 (configuration not stated)	·	·	21.2%	-3.9%[46.1 µM]	·	3.8%	4.5%	0.9%
Cc1ccc(S(=O)(=O)N(C)C)cc1NC(=O)C(C)N(C)CCOc1ccc(Cl)cc1 (configuration not stated)	·	·	?	?	-28.4%	-16.7%	?	0.3%
COc1ccc(-c2oc3ccccc3c(=O)c2OCC(=O)O)cc1	·	·	3.2%	15.0%[46.1 µM]	-0.4%	13.4%	-0.3%	0.1%
CCOc1ccc(C(=O)Nc2nnc(S(=O)(=O)N3CCCCC3)s2)cc1	·	·	22.2%	·	11.6%	2.1%	·	?
Cc1ccc(-n2c(C)c([N+](=O)[O-])c3ccc(O)c(CN(C)C)c32)cc1	-19.6%	-21.4%	?	?	?	0.2%	3.3%	5.5%
O=C(NCc1ccccc1)c1ccc2c(=O)n3c(nc2c1)CCCCC3	·	·	23.1%	?	-12.5%	7.0%	3.9%[46.1 µM]	0.7%
COc1ccc(S(=O)(=O)NCC(c2ccco2)N2CCN(c3ccc(F)cc3)CC2)cc1C (configuration not stated)	2.6%	-7.1%	-25.2%	·	·	·	?	·
CCC(C)[C@H](NC(=O)Nc1ccc(C(C)=O)cc1)C(=O)OC (some centres not stated)	-4.8%	0.2%	-18.0%	0.0%	1.2%	8.7%	26.0%	1.0%
CCc1ccc(-n2nc(CO)c(C(=O)NCCCCc3ccccc3)n2)cc1	-8.6%	-1.7%	5.1%	13.0%[46.1 µM]	·	·	7.6%[46.1 µM]	·
O=C(CCCCCn1c(=S)[nH]c2cc3c(cc2c1=O)OCO3)N1CCN(Cc2ccccc2)CC1	?	-2.7%	-20.6%	-21.0%&-21.0%	-27.3%	-0.8%	-24.6%	-1.6%
